HCMV UL50-53 inh – inhibitors of HCMV UL50-UL53 nuclear egress complex interaction | HTRF UL50-UL53 interaction, normalized percent inhibition | inhibition, % (concentration not given with the values) | 190,000 tested, 0.15% active | AID 1918969;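 active means both replicates at 50% or more, plus weaker picks with an unusually low signal ratio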;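 further: stock transfer was 100 nL into about 20 µL; 0% = negative control wells and 100% = wells with untagged competitor protein; inactives centre near -12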
GIV Gai3 FP – inhibitors of GIV GBA-motif binding to rat Galpha-i3; 210,000 tested, 0.42% active; Galpha-i3/FITC-GIV peptide fluorescence polarization, 90 min; hits give low values; scaled: aluminum fluoride 0%, vehicle 100%; P08753; percent of control (FP), % (concentration not given with the values);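 active means replicate mean at 85% of control or lower, very high polarization wells dropped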;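 further: wells of about 15 µL received 100 nL stock; the first replicate is given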
Target sequence (P08753 whole entry, looked up): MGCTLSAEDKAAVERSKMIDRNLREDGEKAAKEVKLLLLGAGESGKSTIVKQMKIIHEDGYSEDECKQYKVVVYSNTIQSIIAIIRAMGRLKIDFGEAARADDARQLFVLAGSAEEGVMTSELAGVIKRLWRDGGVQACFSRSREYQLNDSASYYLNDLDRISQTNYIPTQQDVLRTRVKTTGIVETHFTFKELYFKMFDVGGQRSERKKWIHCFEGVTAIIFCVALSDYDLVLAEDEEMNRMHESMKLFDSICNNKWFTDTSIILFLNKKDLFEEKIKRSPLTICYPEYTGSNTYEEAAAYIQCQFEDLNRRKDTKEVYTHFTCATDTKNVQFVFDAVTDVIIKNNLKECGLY
Sa growth inh – inhibitors of Staphylococcus aureus growth at 42 °C; relative growth, % (no concentration beside the values); S. aureus RN4220 growth, OD600, 20 h; hits give low values; 170,000 tested, 0.53% active; AID 720641;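 active means growth at 42 °C up to 50% and 20 or more points under that at 30 °C, or under 10% at both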;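 further: 300 nL library stock went into each well; scaled to the means of positive and negative controls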
Sa growth inh second temp – further read-out of Sa growth inh, marked with its call; relative growth, %; measured here: growth at 30 °C;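 optical density after 20 h as mean of two plates; 100% = untreated growth and lower means inhibition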
An asterisk follows results filed as active; . = not tested or not shown; & = joins results of further samples. This is a random part of the collection (roughly 0.85% active in at least one column).

SMILES	HCMV UL50-53 inh	GIV Gai3 FP	Sa growth inh	Sa growth inh second temp
CC(C)(C)c1csc(NC(=O)c2ccncc2)n1	10	.	103	97
CCOC(=O)C1CCN(C(=O)CN2C(=O)C(C)(C)c3cc(S(=O)(=O)N4CCCC4)ccc32)CC1	-19	101	.	.
O=C(CCOc1ccccc1F)N1CCN(c2ccccc2O)CC1	-7	.	94	90
Cc1ccc(C)c(CC2C(=O)Nc3c(C)cc(C)cc32)c1 (stereo not given)	-2	107	.	.
O=c1c(Cl)c(N2CCCC2)cnn1-c1ccccc1	.	105	88	91
CC(=O)NC1=CC(=O)CC(C)(C)C1	-9	102	102	112
O=C(Nc1ccc2snnc2c1)NC1CC1	48*	104	84	54
Cc1ccc2c(c1)NC(C)c1ccccc1O2 (stereo not given)	-10	.	111	77
CCOc1ccccc1NC(=O)N1CCC2(CC1)Oc1ccccc1C(=O)N2Cc1ccccc1F	-10	103	106	103
COc1cc(N)c(Cl)cc1C(=O)OCCN1CCCCC1	-21	102	.	.
Cc1ccc(Nc2cc(N3CCCC(C)C3)c3nonc3c2[N+](=O)[O-])cc1C (stereo not given)	-24	101	.	.
CCc1nnc2c(N3CCN(c4cc(Cl)ccc4C)CC3)nc3ccccc3n12	.	106	116	96
O=C1CS(=O)(=O)C2(C(=O)N(Cc3ccc(F)cc3)c3ccccc32)N1c1cccc(C(F)(F)F)c1 (stereo not given)	.	111	135	104
CCOC(=O)c1c(NC(=O)Cc2ccc(Cl)cc2)sc(C(=O)Nc2ccccc2OC)c1C	-5	108	.	.
O=C(O)c1ccc2nc3ccsc3c(=O)n2c1	-64	101	100	86
O=C(CCNS(=O)(=O)c1ccc2c(c1)CCCC(=O)N2)Nc1cccc(Cl)c1	.	107	85	85
Fc1ccc(-c2cc(C(F)(F)F)nc(NC3CCCC3)n2)cc1	-22	102	77	66
O=C(COc1ccccc1)NCc1ccccc1	2	102	92	107
CC1CCCCN1C(=S)Nc1ccccc1 (stereo not given)	-21	105	100	85
CC1=C(C(=O)Nc2ccccc2)C(c2cc(Br)ccc2F)n2ncc(C(=O)Nc3ccccc3)c2N1 (stereo not given)	.	106	124	104
COc1cc(/C=C(\C#N)C(=O)Nc2ccc(S(N)(=O)=O)cc2)ccc1O	-71	250	108	77
Cn1c(=O)cc(OCC(=O)NCCCN2CCCC2)c2ccccc21	.	99	91	95
CN(c1ccc(C(=O)NN=C2CCCC2)cc1)S(=O)(=O)c1ccccc1	-3	108	94	88
CC1=NN(c2ccc(Br)cc2)C(=O)/C1=C\c1ccc(-c2cccc([N+](=O)[O-])c2)o1	-8	103	.	.
CCC(=O)N(C)C1CCS(=O)(=O)C1 (stereo not given)	-35	94	84	79
CSc1ncccc1C(=O)OCC(=O)N(C)C	-22	.	102	97
COc1cc(C2c3c(-c4c(C)cc(C)cc4O)n[nH]c3C(=O)N2Cc2ccco2)cc(OC)c1OC (stereo not given)	-6	98	109	85
Cc1ccc(CCSc2ccc(Cl)c(Cl)c2)cn1	-21	.	29	40
CC1CC1C(=O)OCC(=O)NCc1ccc(Cl)cc1Cl (stereo not given)	10	.	77	92
CN1/C(=C\C(=O)CC(N)=O)C(C)(C)c2ccccc21	1	.	108	101
CC1CCCN(S(=O)(=O)C2CCS(=O)(=O)C2)C1 (stereo not given)	-14	101	.	.
CCCc1cc2ccccc2o1	102	112	114	97
CCCCn1c(-c2ccccc2)nc(=S)c2c1CCCC2	.	103	87	88
Cc1ccc(OC(C)C(=O)O)cc1 (stereo not given)	-18	.	112	95
COc1ccc(CCNC(=O)C2NC(=O)CC2c2ccccc2)cc1OC (stereo not given)	3	105	111	89
O=C1C=C(NCCc2ccccc2)C2(CCCCC2)O1	-20	101	112	92
COc1ccc(OCc2nc(CCN(C)C(=O)CC3CCCC3)no2)cc1	-19	104	.	.
Cc1cc(=O)[nH]c2c1c(C)nn2C1CCCC1	-12	.	103	87
Cc1nc2ncnn2c(C)c1CCC(=O)N(C)CC(=O)Nc1ccc(OC(F)(F)F)cc1	-16	.	90	91
CC1(C)COC(c2ccccc2)=N1	-14	97	92	83
CCOC(=O)C1CCCN(CCC(=O)Nc2ccc(Br)c(C)c2)C1 (stereo not given)	-29	101	131	87
CCN1CCC2(CC1)NCCc1c2[nH]c2ccc(OC)cc12	-4&-2	97&106	90	84
Cc1cc(NC(=O)/C(=C/c2cccs2)c2ccsc2)no1	-58	103	107	93
COc1ccc(CN2C(=O)CC(C(=O)Nc3ccccc3OC)SC2=Nc2ccccc2)cc1 (stereo not given)	3	109	.	.
Cc1ccc(-c2nc(S(=O)(=O)c3ccc(C)cc3)c(NC3CC3)o2)cc1	3	97	.	.
N#C/C(C(N)=O)=C1/SC=C(c2ccccc2)N1Cc1ccccc1	-20	104	96	94
Cc1ccc(-c2noc3c(NC4CCCc5ccccc54)nc(C)nc23)cc1 (stereo not given)	-16	102	.	.
O=C(c1cncc(Br)c1)N1CCN(c2ccc(-c3noc(C4CCC4)n3)cc2)CC1	-27	102	.	.
COc1ccc(S(=O)(=O)N2CCCN(S(=O)(=O)c3ccc(OC)cc3C)CC2)c(C)c1	-15	105	90	80
CNC(=O)C1CCC(Cn2c(=O)c3sccc3n(Cc3ccc(F)cc3)c2=O)CC1 (stereo not given)	.	98	88	86
Following part:
SMILES	HCMV UL50-53 inh	GIV Gai3 FP	Sa growth inh	Sa growth inh second temp
O=C1CCC(C(=O)OCC(=O)N(C2CCCCC2)C2CCCCC2)=NN1	-5	.	69	85
C=CCn1ccc2c(OCC(=O)c3ccccc3)cccc2c1=O	-22	104	112	93
COC(=O)c1ccc(CSc2nnc(COc3ccccc3)o2)o1	-3	106	104	101
C1=C2Nc3ccccc3N=C(c3ccccc3)C2NN1c1ccccc1 (stereo not given)	6	.	101	103
O=C(CCN1C(=O)/C(=C/c2ccc(F)cc2)SC1=S)Nc1ncc(Cc2ccc(Cl)cc2)s1	-24	102	.	.
O=S(=O)(Nc1ccc(Cn2cnc(-c3nc(-c4ccc(F)cc4)no3)c2)cc1)c1ccc(Cl)cc1	-29	104	.	.
COc1cc(C2NC(=O)N(C)C(C)=C2C(=O)OCc2ccccc2)cc(Cl)c1O (stereo not given)	-6	98	.	.
CCN(CC)CC(O)COC1CCC(C(C)(C)C)CC1 (stereo not given)	-32	.	62	82
COc1cccc(-c2nnc(SCc3cc(=O)n4c(C)csc4n3)o2)c1	-32	96	.	.
CC(C)CN1C(=O)c2ccc(Br)cc2C1=O	-33	100	101	99
CCOC(=O)C1=C(O)/C(=C/c2ccco2)SC1=Nc1ccc(C)cc1	-18	109	99	91
CCOC(=O)Cn1c(=NC(=O)C2COc3ccccc3O2)sc2cc(S(N)(=O)=O)ccc21 (stereo not given)	-9	110	109	98
CN(C(=O)COC(=O)c1cc(F)c(F)cc1Cl)c1ccccc1	-12	.	102	90
CCCn1c2ccccc2c2cnn(CC(=O)NCCCN(Cc3ccccc3)C(C)C)c(=O)c21	.	110	104	103
Cc1ccc(Cl)cc1N1CCN(C(=O)c2ccc3noc(-c4ccccc4)c3c2)CC1	-17	104	98	86
CCCOc1ccccc1NC(=O)/C=C/C(N)=O	-26	.	71	26
O=c1[nH]c(-c2ccccc2)nc2c1oc1ccccc12	-20	99	89	84
Cc1sc2ccccc2[n+]1CCCO	-1	104	110	71
COc1ccc(-c2cc(C(=O)Nc3ccc(F)cc3)nn2C2CCS(=O)(=O)C2)cc1 (stereo not given)	-2	107	.	.
CC1=C(C(=O)Nc2ccc(Cl)cc2)C(c2ccccc2F)n2nc(SCc3cccc(Cl)c3)nc2N1 (stereo not given)	-5	97	86	93
COc1ccccc1CNC(=O)CS(=O)Cc1nc(-c2ccc(OC)c(OC)c2)oc1C (stereo not given)	-8	109	.	.
COc1ccccc1NC(=O)C(C#N)Cc1ccc(C)cc1 (stereo not given)	-8	.	96	86
CNC(=O)c1sc(=S)n2c1[nH]c(=O)c1cc(Br)ccc12	-24	98	.	.
COc1ccccc1CC(=O)Nc1ccc(-c2nnc(-c3ccccc3)o2)cc1	-12	101	129	94
CCOC(=O)c1cc2c(=O)n3ccccc3nc2n(CC2CCCO2)c1=NC(=O)c1cccc(C(F)(F)F)c1 (stereo not given)	-14	109	102	107
CSc1ccc(-c2nc3cccc(C)n3c2Nc2ccc(Cl)cc2)cc1	9	111	95	89
O=c1c2c3c(sc2ncn1/N=C/c1cccnc1)CCCC3	-24	.	81	97
COc1ccc(OCC(O)CNS(=O)(=O)c2cccc(Cl)c2)cc1 (stereo not given)	-3	107	104	102
CC1CCCC1OP1(=O)CC=CC1 (stereo not given)	-14	.	76	87
Cc1cc(C2N=C(N)Nc3nc4ccccc4n32)c(C)n1-c1cc(C(F)(F)F)ccc1N1CCOCC1 (stereo not given)	-16	.	105	88
NC(=O)C1CCN(CC2CC3C=CC2C3)CC1 (stereo not given)	-14	102	104	105
O=C(CN1CCN(CCCc2c[nH]c3ccc(F)cc23)CC1)c1ccc(F)cc1	-27	106	93	68
CCN(CC)CCNC(=O)C(=O)NCC(c1cccnc1)N1CCN(c2ccccc2)CC1 (stereo not given)	0	110	77	91
Cc1cc(N2CCN(C(=O)/C=C/C(=O)O)CC2)c2ccccc2n1	-9	100	114	96
O=C(Nc1ccc(Oc2ccccc2)cc1)C1CCCO1 (stereo not given)	-4	.	79	96
Cc1cccc(-c2noc(CNC(=O)N3CCOCC3)n2)c1	-9	117	99	91
CC(C(=O)N1CCN(C)CC1)N1Cc2ccccc2C1=O (stereo not given)	4	105	.	.
CCC(=O)n1nc(NCc2ccc(OC)c(OC)c2)nc1NCc1ccc(OC)c(OC)c1	-6	107	142	92
COc1cc(NC(=O)c2ccc(C(=O)Nc3cc(OC)c(Cl)cc3OC)cc2)c(OC)cc1Cl	-53	106	97	93
Brc1cc2c(cc1CSc1nnc(Cc3ccccc3)o1)OCCO2	-33	.	100	90

13 successive records out of the list so far, for reference:
SMILES	HCMV UL50-53 inh	GIV Gai3 FP	Sa growth inh	Sa growth inh second temp
COc1ccc(OCC(O)CNS(=O)(=O)c2cccc(Cl)c2)cc1 (stereo not given)	-3	107	104	102
CC1CCCC1OP1(=O)CC=CC1 (stereo not given)	-14	.	76	87
Cc1cc(C2N=C(N)Nc3nc4ccccc4n32)c(C)n1-c1cc(C(F)(F)F)ccc1N1CCOCC1 (stereo not given)	-16	.	105	88
NC(=O)C1CCN(CC2CC3C=CC2C3)CC1 (stereo not given)	-14	102	104	105
O=C(CN1CCN(CCCc2c[nH]c3ccc(F)cc23)CC1)c1ccc(F)cc1	-27	106	93	68
CCN(CC)CCNC(=O)C(=O)NCC(c1cccnc1)N1CCN(c2ccccc2)CC1 (stereo not given)	0	110	77	91
Cc1cc(N2CCN(C(=O)/C=C/C(=O)O)CC2)c2ccccc2n1	-9	100	114	96
O=C(Nc1ccc(Oc2ccccc2)cc1)C1CCCO1 (stereo not given)	-4	.	79	96
Cc1cccc(-c2noc(CNC(=O)N3CCOCC3)n2)c1	-9	117	99	91
CC(C(=O)N1CCN(C)CC1)N1Cc2ccccc2C1=O (stereo not given)	4	105	.	.
CCC(=O)n1nc(NCc2ccc(OC)c(OC)c2)nc1NCc1ccc(OC)c(OC)c1	-6	107	142	92
COc1cc(NC(=O)c2ccc(C(=O)Nc3cc(OC)c(Cl)cc3OC)cc2)c(OC)cc1Cl	-53	106	97	93
Brc1cc2c(cc1CSc1nnc(Cc3ccccc3)o1)OCCO2	-33	.	100	90

(further entries)
SMILES	HCMV UL50-53 inh	GIV Gai3 FP	Sa growth inh	Sa growth inh second temp
COc1cccc(CN(C)C(=O)C2CC(=O)N(c3ccc(C)cc3)C2)c1OC (stereo not given)	-11	.	98	96
CCC(C)NC(=O)C1CCC(CNS(=O)(=O)c2ccc(Cl)cc2)CC1 (stereo not given)	.	102	101	96
c1ccc(COc2cccc(-c3nnc4ccc5ccccc5n34)c2)cc1	3	.	24	19
CN(C)c1nc2ncnc(SCC(=O)Nc3ccc(Cl)cc3)c2s1	-17	109	.	.
COc1ccccc1NC(=O)C1=C(C)Nc2nc(-c3ccco3)nn2C1c1cccc(C)c1 (stereo not given)	-10	102	105	94
CCN(CC)CCOC(=O)c1ccc(NC(=O)CCn2c(=O)oc3ccccc32)cc1	-13	105	99	88
CCOC(=O)C1=C(C)N=c2s/c(=C\c3ccc(OC(C)=O)c(OC)c3)c(=O)n2C1c1cccc([N+](=O)[O-])c1 (stereo not given)	-22	105	.	.
Cc1nn(-c2ccccc2)c(C)c1C(=O)Oc1ccccc1	.	99	113	89
COc1ccc(CC(=O)O)cc1F	-7	.	83	96
O=S(=O)(c1ccccc1)N1N=C(c2cccs2)CC1c1ccc(Br)cc1 (stereo not given)	-2	110	.	.
COC(=O)c1ccccc1NC(=O)COC(=O)C1CCCCC1	-12	.	82	85
Cc1nc2ccn(Cc3ccco3)c(=O)c2cc1C(=O)NCC1CCCO1 (stereo not given)	5	101	96	96
O=C1CCCc2cc(S(=O)(=O)N3CCC(C(=O)NCCC4=CCCCC4)CC3)ccc2N1	-12	114	.	.
CCN1CCN(C(=O)c2ccc3c(c2)N(Cc2cccc(Cl)c2)C(=O)c2ccccc2S3=O)CC1 (stereo not given)	.	106	98	75

Screening results from PubChem.
